Bioassay records (PubChem)
ClpP mod: qHTS Assay for Activators of ClpP; ATP-dependent Clp protease proteolytic subunit (Bacillus subtilis (strain 168)), P80244; purified B. subtilis ClpP, FRET peptide cleavage, 20 min; Potency, µM (doses to about 57.5 µM), for inactives: at the highest dose activity change, negative = active; 340,000 compounds, 1.9% hits; active = well fitted falling curve with a large enough effect; inconclusive = small, poorly fitted or top-dose-only effect; inactive = no such curve, though single readings can be large or run the other way; also: the source files actives as falling curves though it sought activators and does not explain the sign; nearly all actives have a fitted effect of over 65% in size; many hits overshoot -100%
Target sequence (P80244 whole entry, looked up): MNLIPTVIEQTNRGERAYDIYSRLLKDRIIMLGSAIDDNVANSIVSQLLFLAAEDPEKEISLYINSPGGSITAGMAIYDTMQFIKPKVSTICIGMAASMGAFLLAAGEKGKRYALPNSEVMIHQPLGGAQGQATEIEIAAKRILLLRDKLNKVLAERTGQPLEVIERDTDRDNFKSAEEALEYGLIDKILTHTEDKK
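Purified B. subtilis ClpP, 10 microg/mL final in Tris/HCl pH8 with KCl, BSA, glycerol and Tween-20, cleaved an Abz/nitrotyrosine-quenched decapeptide. Fluorescence (ex 320, em 430) was read at 0 and 20 min at room temperature. Delta was normalized to 5.8 microM ADEP and DMSO/no-enzyme controls.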
Active calls of the source: *; ? = inconclusive; & = joins results of further samples. Potency is read from the fitted curve at half-maximal effect.

| compound | ClpP mod |
| --- | --- |
| Cc1cccc(C)c1NC(=O)C(CCc1ccccc1)N1CCC(c2ccccc2)CC1 (stereo not given) | 0.9% |
| COc1ccc(CN2C(=O)CN(S(C)(=O)=O)CC2(C)C(=O)Nc2ccc3c(c2)OCCO3)cc1OC (stereo not given) | -0.1% |
| CC(C)[C@H](NC(=O)OC(C)(C)C)c1cc(C(=O)NCCc2c[nH]c3ccccc23)c(N)s1 | 1.0% |
| COc1ccc(CN2CC[C@H]3C=CC[C@@H](C(=O)N4CCN(c5ccccc5)CC4)[C@H]3C2=O)cc1OC | 1.0% |
| O=C(NCc1ccccc1)C(c1ccccc1)n1c(-c2ccccn2)nc2ccccc21 (stereo not given) | ? |
| COc1cccc(C(C(=O)NCc2ccccc2)N2CCN(C(=O)C3CCCO3)CC2)c1OC (stereo not given) | -4.9% |
| COc1ccc(C(C(=O)NC2CCCC2)n2c(CSCCOc3ccccc3)nc3ccccc32)cc1 (stereo not given) | -2.0% |
| COC(=O)[C@@]12C[C@@H](CC(=O)N3CCC(c4ccccc4)CC3)C(=O)N(Cc3ccc4c(c3)OCO4)C1=CCC(C)(C)C2 | -1.5% |
| COc1ccc(C(C(=O)c2ccccc2)c2ccccc2)cc1 (stereo not given) | -0.6% |
| CCOC(=O)CC1(C)N(S(=O)(=O)c2ccc(C)cc2)c2ccccc2N1S(=O)(=O)c1ccc(C)cc1 | 0.3% |
| CCCCCNC(=O)c1nc(-c2c(F)cccc2F)oc1-c1ccccc1 | 4.7% |
| CCCCCCCCN1C(=O)[C@H](CC(=O)NCc2cccc3ccccc23)C[C@@]2(C(=O)OC)CC(C)(C)CC=C12 | 0.9% |
| O=C(Nc1ccc(F)cc1)C(c1ccnc2ccccc12)N1CCN(c2cccc(C(F)(F)F)n2)CC1 (stereo not given) | -5.8% |
| CCCCCNC(=O)C1C(=O)Nc2ccccc2C(=O)N1c1c(C)cccc1C (stereo not given) | -6.7% |
| COC(=O)C(C(=O)OC)c1ccccc1NS(=O)(=O)c1c(C)cc(C)cc1C | -0.3% |
| Cc1[nH]c2ccccc2c1C(=O)c1cc(Cc2ccccc2)sc1N | -4.3% |
| COC(=O)C(C(=O)OC)c1cc2c(cc1CNS(=O)(=O)c1ccc(C)cc1)OCO2 | 1.9% |
| COC(=O)C1(C(=O)OC)C[C@H](c2cccs2)N(Cc2ccccc2OC)[C@@H]1c1ccc(F)cc1 | 3.0% |
| O=C(C[n+]1cccc2cccc(O)c21)c1ccc(F)cc1 | -3.8% |
| COC(=O)C[C@@H]1CC[C@H](NC(=O)c2ccc3c(c2)OCO3)[C@@H](CO)O1 | -0.6% |
| CC(=O)C[C@@H]1OC[C@H](CO)N1S(=O)(=O)c1ccc(C)cc1 | 0.1% |
| CCc1c(-c2cccc(OC)c2)ncn1Cc1cccc(-c2ccccc2)c1 | ? |
| CCCCCCCCN1[C@@H](CC(=O)OC)c2ccc(/C=C/C(=O)OC)cc2S1(=O)=O | -8.1% |
| COc1cc(CC(=O)N2c3ccccc3N=C(c3ccccc3)C2C(=O)NCc2ccccc2)cc(OC)c1 (stereo not given) | -29.3% |
| O=C(C[n+]1cccc2ccccc21)c1ccc(F)cc1 | -24.1% |

2 records drawn at random from the list so far, as already listed:
| compound | ClpP mod |
| --- | --- |
| CCCCCNC(=O)c1nc(-c2c(F)cccc2F)oc1-c1ccccc1 | 4.7% |
| CCOC(=O)CC1(C)N(S(=O)(=O)c2ccc(C)cc2)c2ccccc2N1S(=O)(=O)c1ccc(C)cc1 | 0.3% |

The list continues:
| compound | ClpP mod |
| --- | --- |
| CCCCCCCCN1C(=O)[C@H](CC(=O)N2CCSCC2)C[C@@]2(C(=O)OC)CC(C)(C)CC=C12 | 2.2% |
| COC(=O)/C=C1\OC(c2ccccc2)c2ccccc21 (stereo not given) | 1.2% |
| O=C(C(=O)N1CCC(Cc2ccccc2)CC1)c1ccccc1 | 1.1%&-3.0% |
| O=c1[nH]/c(=C/c2ccc3c(c2)OCO3)c(=O)[nH]/c1=C/c1ccc2c(c1)OCO2 | 0.5% |
| O=C(NC1CCCC1)C1C(c2ccc(C(F)(F)F)cc2)=Nc2ccccc2N1C(=O)c1ccccc1 (stereo not given) | -27.4% |
| CC(C)(C)NC(=O)C1C(c2ccc(C(F)(F)F)cc2)=Nc2ccccc2N1C(=O)c1cccc2ccccc12 (stereo not given) | ? |
| CC(C)C[C@@H](CN=[N+]=[N-])N1CCN(CCc2ccccc2)CCC1=O | -22.7% |
| CC1=C(C(=O)OCc2ccc3nsnc3c2)N2C(=O)[C@@H](NC(=O)OCc3ccc4nsnc4c3)[C@H]2SC1 | -9.2% |
| O=C(NC1CCCCC1)C(c1ccc(C(F)(F)F)cc1)n1c(=O)c(-c2ccco2)nc2ccccc21 (stereo not given) | 4.7% |
| Oc1cccc2c(CC(O)c3c[nH]c4ccccc34)ccnc12 (stereo not given) | -3.1% |
| COC(=O)C[C@@H]1CC[C@@H](NS(=O)(=O)c2ccc(OC)cc2)[C@@H](CO)O1 | 0.6% |
| O=C(C[C@H]1CC[C@@H]2[C@H](COC[C@H](O)CN2Cc2cccc(C(F)(F)F)c2)O1)NCCc1ccccc1 | -3.9% |
| O=c1c(-c2cc3ccccc3[nH]2)nc2ccccc2n1C(CCc1ccccc1)c1nc2ccccc2[nH]1 (stereo not given) | 32.1% |
| O=C(Nc1nccs1)[C@@H]1CC=C[C@@H]2CCN(C3CC3)C(=O)[C@@H]21 | -0.8% |
| Cc1ccc(S(=O)(=O)N2C3CC(c4ccccc4)N(S(=O)(=O)c4cccc(Cl)c4)CC3C(=O)C[C@H]2c2ccccc2)cc1 (stereo not given in full) | -1.8% |
| CCOC1=C2CN(S(=O)(=O)c3ccc(C)cc3)C(c3ccccc3)CC2N(S(=O)(=O)c2ccc(C)cc2)C(c2ccc(Br)cc2)C1 (stereo not given) | 2.2% |
| Cc1cc2c(cc1C)-c1nnnn1C(N1CCC(Cc3ccccc3)CC1)C(=O)N2 (stereo not given) | -2.3% |
| CCC(C(=O)NCc1ccccc1)n1c(-c2ccc3c(c2)CCO3)nc2ccccc21 (stereo not given) | 4.0% |
| CC(C)[C@H](NC(=O)OC(C)(C)C)c1cc(C(=O)N2CCOCC2)c(N)s1 | -1.2% |
| O=C(NCc1ccccc1)c1nc(-c2c(F)cccc2F)oc1-c1ccccc1 | 4.7% |
| COc1ccc(NC(=O)C(c2ccncc2)n2c(=O)c(-c3cc4ccccc4[nH]3)nc3ccccc32)cc1 (stereo not given) | -22.3% |
| Nc1nc(N)c(N=O)c(N)n1 | 0.2% |
| CCCCNC(=O)C1C(c2ccc(C(F)(F)F)cc2)=Nc2ccccc2N1C(=O)c1cccc(C(F)(F)F)c1 (stereo not given) | ? |
| CC1=C(C(=O)N2CCCCCC2)CC(CC(=O)NCCN2CCOCC2)C(=O)N1CCC1=CCCCC1 (stereo not given) | 1.2% |
| Cc1[nH]c2ccccc2c1C(=O)c1cc([C@H](NC(=O)OC(C)(C)C)C(C)C)sc1N | -1.9% |
| COC(=O)C[C@H]1CC[C@@H](NS(=O)(=O)c2ccccc2)[C@@H](CO)O1 | -0.7% |
| COC(=O)[C@@]12C[C@@H](CC(=O)N3CCOCC3)C(=O)N(Cc3ccc4c(c3)OCO4)C1=CCC(C)(C)C2 | 2.6% |
| COc1ccc(N2C(=O)c3ccccc3NC(=O)C2C(=O)Nc2ccc(N3CCOCC3)cc2)cc1 (stereo not given) | -4.9% |
| Cc1ccccc1S(=O)(=O)N1C(c2ccc(Cl)c(Cl)c2)CC=C(C(=O)O)C1c1cccc(Br)c1 (stereo not given) | -1.8% |
| COCCN1C(=O)CSCC1(C)C(=O)Nc1ccc2c(c1)OCCO2 (stereo not given) | 1.1% |
| Nc1nc2ncccn2c1-c1ccc(F)cc1 | -6.7% |
| COc1cc(OC)c(/C=C/c2ccccn2)c(OC)c1 | 1.6% |
| COc1ccc(CN2C(=O)CSCC2(C)C(=O)NCc2ccccc2)cc1 (stereo not given) | 2.1% |
| O=C(Nc1nccs1)[C@@H]1CC=C[C@@H]2CCN(C3CCCCC3)C(=O)[C@@H]21 | -2.2% |
| CCCc1c(-c2ccc(F)cc2F)ncn1Cc1cccc(-c2ccccc2)c1 | 1.2% |
| Cc1cccc(C)c1NC(=O)C1C(c2ccc3c(c2)OCO3)=Nc2ccccc2N1C(=O)c1cccc(C(F)(F)F)c1 (stereo not given) | -27.1% |
| COC(=O)C1(C(=O)OC)C[C@H](c2ccccc2)N(Cc2ccccc2OC)[C@@H]1c1ccccc1 | -5.6% |
| COc1ccc(NC(=O)N[C@H]2CC[C@@H](CC(=O)NC3CCC3)O[C@@H]2CO)cc1 | 1.3% |
| O=C1Nc2ccccc2-c2nnnn2C1N1CCCC1 (stereo not given) | -0.2% |
| Clc1ccc2nccnc2c1 | -18.7% |
| COc1cccc(C(C(=O)NC2CCCC2)N2CCN(c3ncccc3C#N)CC2)c1OC (stereo not given) | 0.9% |
| COC(=O)C1=CN(c2ccc(C(C)(C)C)cc2)C(N)=C(C#N)C1c1cccc2ccccc12 (stereo not given) | -10.7% |
| O=C(Nc1ccc2ccccc2c1)C(c1ccccc1F)n1c(=O)c(-c2cc3ccccc3[nH]2)nc2ccccc21 (stereo not given) | 53.7% |
| Cc1ccccc1CN1C(=O)CSCC1(C)C(=O)Nc1ccc2c(c1)OCCO2 (stereo not given) | -1.5% |
| CCCCNC(=O)c1nc(-c2cccnc2OC)oc1-c1ccc(Cl)cc1 | 4.0% |
| CN(C)c1ccc2ccc3cccc4ccc1c2c34 | 4.7% |
| CN(C)c1ccc(/C=c2\[nH]c(=O)/c(=C\c3ccc(N(C)C)cc3)[nH]c2=O)cc1 | 2.3% |
| CCOC(=O)[C@]12CCCC=C1N(Cc1ccccc1)C(=O)[C@H](CC(=O)N1CCN(C(=O)C3CC3)CC1)C2 | 2.6% |
| Cc1ccc(S(=O)(=O)N2CC3C(=O)C[C@@H](c4ccccc4)N(S(=O)(=O)c4cccc(Cl)c4)C3CC2c2ccccc2)cc1 (stereo not given in full) | 0.8% |
| CCCCOCCCNC(=O)C[C@@H]1C[C@@]2(C(=O)OC)CCCCC=C2N(Cc2ccc3c(c2)OCO3)C1=O | 2.2% |

Reformatted as labelled records: entries from further up
SMILES: COc1cc(OC)c(/C=C/c2ccccn2)c(OC)c1
- ClpP mod: 1.6%

SMILES: COc1ccc(CN2C(=O)CSCC2(C)C(=O)NCc2ccccc2)cc1 (stereo not given)
- ClpP mod: 2.1%

SMILES: O=C(Nc1nccs1)[C@@H]1CC=C[C@@H]2CCN(C3CCCCC3)C(=O)[C@@H]21
- ClpP mod: -2.2%

SMILES: CCCc1c(-c2ccc(F)cc2F)ncn1Cc1cccc(-c2ccccc2)c1
- ClpP mod: 1.2%

(more compounds)
| compound | ClpP mod |
| --- | --- |
| O=c1c2ccccc2oc2ccc(-c3ccoc3)cc12 | -15.3% |
| COC(=O)[C@@]12C[C@@H](CC(=O)NCc3ccc(C)o3)C(=O)N(Cc3ccccc3)C1=CCC(C)(C)C2 | 1.0% |
| CC(C)(C)NC(=O)C(c1ccncc1)n1c(=O)c(-c2ccco2)nc2ccccc21 (stereo not given) | 4.0% |
| Nc1nc2ncccn2c1-c1ccc(F)c(F)c1 | -9.6% |
| O=C(C[C@H]1CC[C@H]2[C@@H](COC[C@@H](O)CN2S(=O)(=O)c2ccc(F)cc2)O1)N[C@@H]1CCN(Cc2ccccc2)C1 | 3.0% |
| COc1ccc(C2=Nc3ccccc3N(C(=O)c3cc(Cl)cc(Cl)c3)C2C(=O)NCc2ccccc2)cc1 (stereo not given) | -10.5% |
| COCC(=O)N1C[C@H](C)[C@H](OC)CN(C)C(=O)c2cc(NC(=O)Nc3cccc(F)c3)ccc2OC[C@@H]1C | 0.6% |
| CCOC(=O)[C@]12CCCC=C1N(CCC1=CCCCC1)C(=O)[C@H](CC(=O)N1CCCC1)C2 | -0.6% |
| COCCN1C(=O)CN(S(C)(=O)=O)CC1(C)C(=O)Nc1c(C)cccc1C (stereo not given) | -3.0% |
| Cc1cccc(C)c1NC(=O)C1(C)CN(S(C)(=O)=O)CC(=O)N1CCOc1ccccc1 (stereo not given) | -1.3% |
| COc1ccc(C(C(=O)Nc2ccc3c(c2)OCCO3)n2c(=O)c(-c3ccco3)nc3ccccc32)cc1 (stereo not given) | -20.3% |
| CCCNC(=O)N[C@H]1C=C[C@H](CC(=O)OC)O[C@@H]1CO | -2.2% |
| CC(C)c1cc(Cn2c3ccccc3c(=O)n2C(C)Cn2cc(CCc3ccccc3)nn2)on1 (stereo not given) | 4.1% |
| C[N+]1(CC(=O)c2ccc(F)cc2)CCc2ccccc2C1 (stereo not given) | -0.2% |
| COc1ccc(C(=O)NCCNc2nc3cc(C)cc(C)c3cc2C#N)c(OC)c1 | -6.2% |
| CCCCN1CC[C@H]2C=CC[C@@H](C(=O)NCc3cccnc3)[C@H]2C1=O | 0.0% |
| O=C(Nc1ccc(F)cc1)N[C@H]1CC[C@H](CCNS(=O)(=O)c2cccc(Cl)c2)O[C@@H]1CO | -0.7% |
| COc1ccc(N2c3ccccc3CN(Cc3ccccc3)[C@@H](C)[C@H]2Cc2c(C)cccc2C)cc1 | -18.5% |
| O=C(NC1CCCC1)C(c1ccccc1)n1c(-c2ccc3c(c2)CCO3)nc2ccccc21 (stereo not given) | ? |
| O=C(C[C@@H]1CC[C@H](NC(=O)Cc2ccccn2)[C@@H](CO)O1)NCCc1ccccc1 | -2.4% |
| Cc1cccc(N2CCN(C(C(=O)NCc3ccccc3)c3ccc(F)cc3)CC2)c1C (stereo not given) | -0.5% |
| Cc1ccc(S(=O)(=O)N2[C@@H](CO)CO[C@H]2CC(=O)c2ccccc2)cc1 | 1.9% |

Some of the compounds tested; the hit share may differ from the screen's.
